Assay outcomes: PubChem, National Center for Advancing Translational Sciences (NCATS)
Rango complex inh: Rango-importin beta binding inhibition; Q14974; Rango CFP/YFP FRET sensor + importin beta, 45 min; Potency, µM (titrated, usually from 92.2 µM), inactives show at the top dose inhibition of complex formation; 0.031% of 340,000 active; active = rising FRET ratio curve, often small or poorly fitted; inconclusive = mostly compound fluorescence or quenching in the first reads; inactive = flat curves in all reads;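 also: potency is read from the fitted curve at half-maximal effect; 0% = DMSO wells and 100% = buffer wells lacking importin beta; nearly all actives have a fitted effect of over 15% in size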
Target sequence (Q14974 whole entry, looked up): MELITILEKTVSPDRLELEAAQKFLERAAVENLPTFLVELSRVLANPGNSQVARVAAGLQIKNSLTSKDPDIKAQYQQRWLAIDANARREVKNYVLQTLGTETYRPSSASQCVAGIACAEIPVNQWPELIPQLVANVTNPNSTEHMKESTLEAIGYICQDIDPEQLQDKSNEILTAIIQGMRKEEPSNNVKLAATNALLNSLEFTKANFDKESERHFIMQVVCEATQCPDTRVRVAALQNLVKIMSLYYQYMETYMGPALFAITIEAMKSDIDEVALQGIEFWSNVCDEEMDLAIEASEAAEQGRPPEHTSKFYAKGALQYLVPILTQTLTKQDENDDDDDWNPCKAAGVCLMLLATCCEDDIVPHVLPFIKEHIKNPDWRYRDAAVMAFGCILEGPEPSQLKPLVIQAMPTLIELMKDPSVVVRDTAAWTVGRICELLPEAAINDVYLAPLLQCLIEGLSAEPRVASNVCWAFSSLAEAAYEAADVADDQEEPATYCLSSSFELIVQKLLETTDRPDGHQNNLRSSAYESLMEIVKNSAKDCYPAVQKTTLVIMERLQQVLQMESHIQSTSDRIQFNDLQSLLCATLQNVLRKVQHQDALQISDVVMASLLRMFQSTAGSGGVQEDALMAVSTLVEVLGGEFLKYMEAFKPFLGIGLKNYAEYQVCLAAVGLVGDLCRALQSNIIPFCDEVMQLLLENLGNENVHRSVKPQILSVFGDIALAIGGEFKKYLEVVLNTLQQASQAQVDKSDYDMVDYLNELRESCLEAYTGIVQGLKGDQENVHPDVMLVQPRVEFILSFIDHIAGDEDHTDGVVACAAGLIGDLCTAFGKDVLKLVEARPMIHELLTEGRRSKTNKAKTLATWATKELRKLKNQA
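Inhibition scored from the CFP 486 nm/YFP 530 nm FRET ratio 45 min after adding 0.125 microM importin beta to 50 nM Rango biosensor preincubated 5 min with compound (room temperature, PBS with DTT, Tween-20, BSA). No-importin wells as positive control.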
miR-21 reporter: miR-21 reporter, rising signal; HeLa miR-21 FLuc reporter, luciferase, 48 h; Potency, µM (series often up to 38.3 µM), inactives show at the highest dose reporter change, positive = more light; 340,000 tested, under 10 active; active = well fitted rising curve with a large enough effect; inconclusive = small, poorly fitted or top-dose-only effect; inactive = no such curve, though single readings can be large or run the other way;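 also: % of control where 0% means no effect; miR-21 action dims this reporter so a rising signal means less miR-21 action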
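HeLa cells endogenously expressing miR-21, stably carrying CMV-driven firefly luciferase with a downstream miR-21 binding site, 2000 cells/well. Titrations up to approximately 40 uM, 48 hours; luciferase luminescence read.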
Rango release inh: inhibition of RanGTP-driven Rango-importin beta dissociation; 0.071% of 340,000 active; O95149+P62826; Potency, µM (top dose mostly 46.1 µM), without a hit: at the highest dose activity change, negative = inhibition; Biochemical FRET Rango-importin beta, RanGTP-induced dissociation; active means falling FRET ratio curve, often poorly fitted, with flat reads before Ran was added; inconclusive means other falling curves, or compound fluorescence or quenching; inactive means flat or rising ratio curve;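 also: potency is read from the fitted curve at half-maximal effect; % of control where 0% means no effect; nearly all actives have a fitted effect of over 45% in size; -100% = wells without RanGTP and RCC1; the record marks most hits as doubtful in a second field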
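Quantitative HTS using a FRET biosensor: 0.1 uM Rango, 0.25 uM importin beta, 0.6 uM Ran, 2 mM GTP, 0.2 uM RCC1 final, PBS with DTT, Tween-20 and BSA. Post-read taken 45 min after Ran addition.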
GLA inh pH 4.5: inhibitors of human alpha-galactosidase A at pH 4.5 | purified enzyme, 4-MU-alpha-Gal fluorescence, pH 4.5 | activity change, negative = inhibition, % at 105 µM | 230,000 tested, under 10 active | P06280; inconclusive = small, poorly fitted or top-dose-only inhibition, or a rising curve; inactive = flat fitted curve, though single readings scatter; no compound was filed as active;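 also: 0% = full activity with enzyme and -100% = basal without enzyme; dose as in the result columns while the protocol names 77 µM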
Active calls of the source: *; ? = inconclusive; · = not tested or not shown; & = joins results of further samples; [ ] = remark or other dose. An excerpt. The share of hits here may be higher or lower than overall.

SMILES	Rango complex inh	miR-21 reporter	Rango release inh	GLA inh pH 4.5
CN(C)S(=O)(=O)c1ccc2c(c1)C(CC(=O)O)OC2=O (stereo unspecified)	-1.5%	-4%	4%	4
Cc1nnc(SCC(=O)NCC2CCCO2)n1Cc1ccccc1 (stereo unspecified)	2.6%	·	-12%	·
COc1ccc(CN2CCN(S(=O)(=O)c3ccc(F)cc3)CC2)c(OC)c1OC	-4.3%	-6%	19%	-4
Cc1cc(Br)cc2c1NC(=O)C2(O)CC(=O)c1ccco1 (stereo unspecified)	-0.2%	-2%	-8%	4
COc1ccc(/C=N/NC(=O)c2cccnc2)cc1COc1ccc(NC(C)=O)cc1	1.2%	18%	18%	?
CCOC(=O)Cc1cc(-c2ccccc2)nc2ccc3ccccc3c12	0.5%	-6%	23%	-15
O=C(COC(=O)c1ccccc1)Nc1ccccc1Sc1ccccc1	-5.1%	-6%	-3%	0
CCc1nnc(N/N=C/c2cc(Br)c(O)cc2O)n1N	?	8%	-30%	·
CC1CCCN(C(=O)COC(=O)Cc2c(F)cccc2Cl)C1 (stereo unspecified)	6.4%	-43%	-13%	·
N/C(Cc1nc2ccccc2s1)=N\O	?	-6%	?	3

In another format: two of the compounds above
| smiles | Rango complex inh | miR-21 reporter | Rango release inh | GLA inh pH 4.5 |
| --- | --- | --- | --- | --- |
| CCc1nnc(N/N=C/c2cc(Br)c(O)cc2O)n1N | ? | 8% | -30% | · |
| CC1CCCN(C(=O)COC(=O)Cc2c(F)cccc2Cl)C1 (stereo unspecified) | 6.4% | -43% | -13% | · |

Later entries.
SMILES	Rango complex inh	miR-21 reporter	Rango release inh	GLA inh pH 4.5
CN(C)c1ccc(/C=C(\C#N)C(=O)OCC(=O)N(C)C2CCS(=O)(=O)C2)cc1 (stereo unspecified)	?	·	?	·
Fc1cccc(Nc2ncnc3sc4c(c23)CCC4)c1	3.4%	-24%	-4%	-4
CC(C)Sc1nc2sc3c(c2c2nnc(SCC(=O)NCc4ccco4)n12)CCCC3	-1.4%	-11%	-4%	-5
Cc1ccc(Cn2nnc3c(=O)n(CC(=O)N4CCCc5ccccc54)cnc32)cc1	0.2%	-14%	-14%	1
CC(C)(O)c1cn(-c2nonc2N)nn1	-0.8%	-1%	1%	-4
CCOc1cc(CNCc2cccs2)cc(Br)c1OC	-0.8%	-13%	-3%	4
CCN(CC)c1ccc(S(=O)(=O)N2CCCCC2)cc1NC(=O)CSCc1c(C)noc1C	-7.2%	·	-4%	·
Cc1cccc(Nc2nc(N)nc(CCl)n2)c1	-1.4%	?	22%	3
CCN1C(=O)[C@H]2[C@@H](c3ccc(-c4ccc(F)cc4)cc3)N[C@@](C)(C(=O)OC)[C@H]2C1=O	-1.6%	·	-4%	·
COC(=O)c1cnc(NNS(=O)(=O)c2ccc(C(F)(F)F)cc2)nc1C(F)(F)F	-0.2%	-3%	23%	-10
CCOC(=O)/C=C(\C)Sc1cc(O)c2ccccc2c1O	-0.3%	?	6%	5
COc1ccc(C(=O)NCC(=O)OCC(=O)c2ccc3c(c2)OCCO3)cc1	3.1%	0%	-24%	0
COc1cc(NC(=O)c2ccc(NS(=O)(=O)c3c(C)noc3C)cc2)cc(OC)c1	3.5%	-5%	5%	4
COc1ccc(F)cc1S(=O)(=O)NC1CCCC1	-2.1%	-1%	15%	3
O=C(Cc1cccc(NC(=O)C2CCCN(C(=O)C3CCCCC3)C2)c1)Nc1ccc(C(=O)N2CCOCC2)cc1 (stereo unspecified)	5.8%	·	-1%	·
C/C(=N\NC(=O)c1sccc1-n1cccc1)c1cccs1	-0.9%	-35%	-18%	3
COc1ccc(OC)c(-n2c(-c3ccccc3)n[nH]c2=S)c1	-2.2%	-2%	-2%	8
CCCCOC(=O)c1ccc(O)cc1	0.1%	-36%	15%	1&5
CCCCn1c(SCC(=O)NC2CCS(=O)(=O)C2)nc2cc(S(N)(=O)=O)ccc21 (stereo unspecified)	-1.1%	3%	11%	10
CCCc1nnc(NC(=O)Nc2ccc(OC)cc2)s1	1.5%	-24%	-2%	6
Cc1ccc(NC(=O)COC(=O)CN2CCCCCC2=O)c(C)c1	-1.9%	·	0%	·
CCOc1cc(NC(=O)c2ccccn2)c(OCC)cc1NC(=O)c1ccc(OC)cc1	-0.9%	2%	-6%	3
CNC(=O)c1ccccc1Sc1ccccc1C#N	2.6%	-3%	-12%	0
COC(=O)c1ccc(OC(=O)CCN2C(=O)C3CCCCC3C2=O)cc1 (stereo unspecified)	-1.8%	-4%	-1%	1
Cc1oc2c(C)c3oc(=O)c(CCC(=O)O)c(C)c3cc2c1-c1ccccc1	2.7%	-1%	2%	·
O=C(NCC1CCCO1)c1cc(Br)c(Br)s1 (stereo unspecified)	-4.7%	-15%	-6%	·
O=C(Oc1cccc(C(=S)N2CCOCC2)c1)c1ccccc1	-1.0%	-3%	-5%	·
CSc1ncccc1C(=O)Nc1cccc(S(=O)(=O)N2CCCCC2)c1	0.4%	·	8%	·
COCCn1c(SCC(=O)Nc2ccccc2F)nc2c(c1=O)SCC2	2.2%	2%	-13%	·
CCc1nc2ccccc2n1CC(=O)OCC(=O)N(CC(C)C)c1c(N)n(Cc2ccccc2)c(=O)[nH]c1=O	-3.2%	·	-2%	·
O=c1[nH]c(SCc2ccccc2Cl)nc2[nH]ncc12	0.7%	-44%	-6%	3
O=C(Cc1cccc2ccccc12)N/N=C/c1ccc(F)cc1	2.1%	0%	2%	0
CCOc1ccccc1NC(=O)c1cc(S(=O)(=O)N2CCC3(CC2)OCCO3)ccc1F	0.2%	-4%	-1%	-19
CCc1ccccc1N1C(=O)C2C3CC(=O)C(c4ccccc43)C2C1=O (stereo unspecified)	-2.5%	0%	-6%	6
CC1(C)C(C(=O)O)N2C(=O)C(NC(=O)Cc3ccccc3)C2S1=O (stereo unspecified)	3.3%	0%	-5%	·
Cc1ccc(C)c(C(=O)Nc2nc3ccccc3[nH]2)c1	-2.0%	-27%	3%	·
CCOC(=O)C1CCCN(S(=O)(=O)c2ccc(C)cc2)C1 (stereo unspecified)	-0.3%	-4%	8%	2
COc1ccc2sc(-c3ccccc3OC)c(-c3ccc(O)cc3)c2c1	0.7%	·	-2%	·
C(=Nc1ccc(N2CCOCC2)cc1)c1c[nH]c2ccccc12	1.7%	-43%	4%	1
Cn1c2ccc(F)cc2c2ncn(CCCN(CCO)CCO)c(=O)c21	0.2%	-14%	-11%	7
CCN(CC)c1ccc(/C=c2\sc3nnc(-c4ccccc4Cl)n3c2=O)cc1	?	-1%	-10%	4
CC(=O)N(C)c1cccc(-c2ccc3nnc(C)n3n2)c1	0.4%	2%	10%	·
Cn1c(=O)oc2cc(S(=O)(=O)Nc3ccc(Cl)cc3F)ccc21	1.1%	-2%	-26%	-8
O=C1c2ccccc2C(=O)N1CCc1nc2ccccc2c(=O)n1Cc1ccco1	3.6%	0%	-18%	16
COc1ccc(C(=O)C[n+]2ccccc2/C=N/O)cc1	?	-35%	1%	-2
Cc1ccc(Cn2nc(C)c(NC(=O)C3CC3)c2C)cc1	5.1%	-5%	?	3
COC(=O)c1sc(N)c(C(=O)OC)c1COC(=O)[C@@H](NS(=O)(=O)c1cccc(Cl)c1)C(C)C	4.9%	7%	-10%	-5
N#Cc1ccc(C=NN2CCCCCC2)cc1	4.2%	·	5%	·
COc1cccc(C(=O)NCCCNC(=O)c2ccco2)c1	-2.8%	2%	9%	·
Cc1[nH]n(-c2nc(-c3cccc([N+](=O)[O-])c3)cs2)c(=O)c1C	4.7%	-40%	4%	4
(cont.)
SMILES	Rango complex inh	miR-21 reporter	Rango release inh	GLA inh pH 4.5
COc1ccc(N(CC(=O)NN=C2CCCCCCC2)S(=O)(=O)c2ccccc2)cc1Cl	0.6%	-4%	-8%	1
CCOc1ccc2[nH]c(=O)c(CN(CCN3CCCC3)C(=S)Nc3ccccc3OC)cc2c1	-0.1%	-3%	0%	-5
CCCNC(=O)N1CCN(Cc2ccco2)CC1	0.7%	-2%	-9%	0
NC1=NC(=O)/C(=C/c2ccc(OCC(=O)O)cc2)S1	0.0%	-1%	-13%	·
Cn1c(CN2CCOCC2)nnc1SCc1ccc(C#N)cc1	0.5%	-3%	0%	-15
COc1ccccc1N1CCN(C2CCCN(C(=O)c3cscn3)C2)CC1 (stereo unspecified)	3.0%	-2%	-9%	·
Cc1ccc(Oc2ccc(OCC(=O)NC(CC(C)C)C(=O)O)cc2)cc1 (stereo unspecified)	5.4%	17%	0%	2
COc1ccc(-n2c(C)cc(=O)c3c2CC(C)(C)CC3=O)cc1	0.4%	-1%	-10%	-3
Cc1ccc(-n2nnnc2SCC(=O)Nc2cccc(NC(=O)c3ccco3)c2)cc1C	2.5%	16%	11%	-9
Cc1cc(CCCCCCCCc2cc(C)cc(=O)o2)oc(=O)c1	-0.6%	-4%	0%	-10
CC(=O)C1=C(c2ccccc2)NC(=S)NC1c1ccc(O)c(O)c1 (stereo unspecified)	2.2%	4%	3%	-5
COC(=O)CSc1ccc2nnc(CCNS(=O)(=O)c3ccc(C)cc3)n2n1	-0.7%	0%&0%	-3%	6[21.1 µM]
Cc1sc2ncnc(SCC(=O)NNC(=O)c3ccco3)c2c1C	4.1%	-6%	3%	3
CC(C)N(Cc1ccccc1)C(=S)Nc1ccc(F)cc1	-5.3%	3%	15%	2
Cc1ccc(NC(=S)N(CCCN2CCCC(C)C2)Cc2ccco2)cc1C (stereo unspecified)	-1.8%	3%	0%	-5
CCOc1ccc(-c2nnn(CC(=O)NCc3ccccc3)n2)cc1	3.6%	2%	-13%	8
O=C(Nc1nc(-c2cc3ccccc3o2)cs1)c1ccc(S(=O)(=O)N2CCCC2)cc1	-6.5%	-1%	1%	2
CCCN1CCN(C(=O)c2ccc(Sc3ccc(C)cc3)c(NC(C)=O)c2)CC1	-1.4%	-4%	-11%	-6
CC1CCCN(C(=O)NC(=O)c2ccc(Cl)cc2)C1 (stereo unspecified)	3.3%	-14%	-2%	·
O=C(COC(=O)C1COc2ccccc2O1)Nc1cccc(F)c1 (stereo unspecified)	1.0%	·	-2%	·
Cc1cc(-c2csc(NC(=O)c3ccc(C#N)cc3)n2)c(C)n1Cc1ccco1	-0.7%	-7%	-7%	1
CCN(CC(=O)N1CCC(C(N)=O)CC1)S(=O)(=O)c1cc(Cl)ccc1Cl	0.4%	·	-10%	·
Cn1c(C(=O)N2CCN(C(=O)c3ccco3)CC2)cc2c(=O)n(C)c3ccccc3c21	0.0%	-14%	-7%	3
COC(=O)Cn1c(CN(Cc2ccccc2)Cc2ccccc2)nc2c1c(=O)[nH]c(=O)n2C	10%	-1%	-3%	0
O=C(Nc1ccc(S(=O)(=O)Nc2ccccn2)cc1)c1cccc(Cl)c1	-0.1%	-7%	4%	·
COc1cc(CC(=O)OCC(=O)c2ccc[nH]2)cc(OC)c1OC	-2.5%	·	-3%	·
Cc1cc(C)c([C@@H]2C[C@H]3CN(C4CCCC4)C(=O)[C@]34CCCN24)c(-n2cccn2)c1	1.8%	5%	10%	-1
Cc1ccsc1C1Nc2ccccc2C(=O)N1O (stereo unspecified)	0.2%	-36%	5%	2
CCC(=O)Nc1nnc(S(=O)(=O)N(C)c2ccccc2)s1	?	0%	?	·
O=C(OCc1cnc(Cl)s1)c1cccs1	-2.8%	-4%	-3%	1
CCOC(=O)c1sc2nc(CN3CCN(c4cccc(C(F)(F)F)c4)CC3)[nH]c(=O)c2c1C	2.9%	-9%	-16%	2
O=C(Nc1ccc(S(=O)(=O)N2CCOCC2)cc1)c1cc(-c2cc(Cl)ccc2O)n[nH]1	0.1%	?	0%	-25

6 entries from above in a different format:
Rango complex inh	miR-21 reporter	Rango release inh	GLA inh pH 4.5	canonical_smiles
-0.7%	-7%	-7%	1	Cc1cc(-c2csc(NC(=O)c3ccc(C#N)cc3)n2)c(C)n1Cc1ccco1
0.4%	·	-10%	·	CCN(CC(=O)N1CCC(C(N)=O)CC1)S(=O)(=O)c1cc(Cl)ccc1Cl
0.0%	-14%	-7%	3	Cn1c(C(=O)N2CCN(C(=O)c3ccco3)CC2)cc2c(=O)n(C)c3ccccc3c21
10%	-1%	-3%	0	COC(=O)Cn1c(CN(Cc2ccccc2)Cc2ccccc2)nc2c1c(=O)[nH]c(=O)n2C
-0.1%	-7%	4%	·	O=C(Nc1ccc(S(=O)(=O)Nc2ccccn2)cc1)c1cccc(Cl)c1
-2.5%	·	-3%	·	COc1cc(CC(=O)OCC(=O)c2ccc[nH]2)cc(OC)c1OC
